Bioassay records: PubChem BioAssay, several laboratories
Siah-1 displacement = Siah-1 peptide-binding antagonists, primary screen, biochemical, fluorescence polarization, rhodamine-plectin, uHTS (AID 1817) | Siah-1 / rhodamine-plectin peptide fluorescence polarization; higher % means a stronger effect | one-dose displacement, % at 20 µM; IC50 in µM for titrated hits | actives 0.02% (n = 290,000);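 active means displacement of at least 50% at 20 µM, with a fluorescence ratio check between 0.3 and a set limit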;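 further: plate controls were Siah plus tracer with DMSO for no effect and tracer alone without Siah for full effect; strong numbers were not always called active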
HIV fusion peptide = cell-free HIV fusion peptide-binding blockers – biochemical, uHTS, fluorescence dequenching, primary screen (AID 1986); actives 0.3% (n = 290,000); inhibition, % at 20 µM; hits with a dose series show IC50 in µM; cell-free peptide binding, fluorescence dequenching, 30 min; higher % means a stronger effect; in the data active means inhibition mostly above about 52%, no sharp cut-off; inactive means mostly below about 76%; further: some results filed as inactive read as strong as hits
KOR agonists = kappa opioid receptor activators – cell-based, luminescence, uHTS, primary screen (AID 1777) | activation, % at 10 µM; hits with a dose series show EC50 in µM | actives 0.02% (n = 280,000) | KOR beta-arrestin recruitment, luminescence; higher % means a stronger effect; in the data active means activation above about 50%, passing the limit was not always enough; further: a part of the inactive calls stands beside numbers as strong as those of hits
Myeloid diff MLP = compounds promoting myeloid differentiation | ER-HoxA9 myeloid progenitors, lysozyme-GFP differentiation, flow cytometry | calls only at 10 µM | actives 1% (n = 360,000) | AID 624256;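 active means normalized GFP-positive differentiation at or above the plate's own cutoff, the solvent-only control mean plus 3 SD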;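 further: cells exposed to compound for four days before flow analysis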
LYP phosphatase = inhibitors of LYP phosphatase, biochemical, fluorescence intensity, uHTS (AID 1779) | actives 0.054% (n = 290,000) | recombinant LYP phosphatase, fluorescence intensity; higher % means a stronger effect | inhibition, % at 11.5 µM; hits with a dose series show IC50 in µM; in the data active means inhibition above about 50%;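 further: plate controls were vehicle with enzyme for no effect and no enzyme for full effect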
Salmonella PhoP GFP = PhoP-dependent GFP reporter repression – Salmonella Typhimurium, primary screen (AID 1863) | S. Typhimurium PhoP-regulated promoter GFP reporter, 4 h; higher % means a stronger effect | actives 0.16% (n = 300,000) | inhibition, % at 50 µM, or IC50 in µM where a hit was titrated;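 active means inhibition over 29.93%, a cutoff 3 SD above the screen mean, later confirmed by dose response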;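 further: 0% = low Mg2+ inducing control and 100% = high Mg2+ repressing control; strong numbers were not always called active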
Myeloid diff MLP GFP+ MAC1+ % = further read-out of Myeloid diff MLP, marked with its call; GFP+ MAC1+ double positive, %; measured here: differentiation confirmed by MAC1 staining
* = called active by the depositor; i = inactive; . = not tested or not shown; + = active, no number; & = joins results of further samples. Some of the compounds tested (hit frequency here may not be typical).

Sample of the layout (5 entries):
[1] CCOc1ccccc1/C=N/NC(=O)Cc1csc(Nc2cccc(C(F)(F)F)c2)n1
[2] Cc1c(N=Cc2ccc(Br)s2)cccc1[N+](=O)[O-]
[3] CCOC(=O)C1CCCN(C(=O)C2CCN(S(=O)(=O)CC)CC2)C1 (stereo not given)
[4] Cc1cnn(-c2cc(N/N=C/c3ccccc3Cl)ncn2)c1
[5] Cc1ccc2cn[nH]c2c1NC(=S)NC(=O)c1ccccc1

Compound | 1 | 2 | 3 | 4 | 5
Myeloid diff MLP GFP+ MAC1+ % | . | 1.1 | 1.1 | 1.0 | 1.6
Myeloid diff MLP | . | i | i | i | i
HIV fusion peptide | 4.3% | -1.7% | 0.0% | -1.8% | 0.6%
KOR agonists | 2.7% | 4.5% | 2.0% | 4.6% | 2.7%
Siah-1 displacement | -2% | 0% | 0% | -2% | 5%
LYP phosphatase | 8% | 0% | -7% | -4% | -3%
Salmonella PhoP GFP | 5% | 8% | -3% | 7% | 9%

All compounds of this part, from the start:
[1] CCOc1ccccc1/C=N/NC(=O)Cc1csc(Nc2cccc(C(F)(F)F)c2)n1
[2] Cc1c(N=Cc2ccc(Br)s2)cccc1[N+](=O)[O-]
[3] CCOC(=O)C1CCCN(C(=O)C2CCN(S(=O)(=O)CC)CC2)C1 (stereo not given)
[4] Cc1cnn(-c2cc(N/N=C/c3ccccc3Cl)ncn2)c1
[5] Cc1ccc2cn[nH]c2c1NC(=S)NC(=O)c1ccccc1
[6] CCn1c(=O)n(CC)c2cc([N+](=O)[O-])ccc21
[7] COc1ccc(S(=O)(=O)/N=C2/C=CC(=O)C(C)=C2C)cc1
[8] CCCN(CCC)CCNC(=O)C1CCCN(S(=O)(=O)c2ccc3c(c2)oc(=O)n3C)C1 (stereo not given)

Compound | 1 | 2 | 3 | 4 | 5 | 6 | 7 | 8
Myeloid diff MLP GFP+ MAC1+ % | . | 1.1 | 1.1 | 1.0 | 1.6 | 0.5 | 2.8 | 5.4
Myeloid diff MLP | . | i | i | i | i | i | i | i
HIV fusion peptide | 4.3% | -1.7% | 0.0% | -1.8% | 0.6% | 0.5% | -2.9% | 2.7%
KOR agonists | 2.7% | 4.5% | 2.0% | 4.6% | 2.7% | 1.8% | 5.0% | 3.0%
Siah-1 displacement | -2% | 0% | 0% | -2% | 5% | -6% | 0% | -2%
LYP phosphatase | 8% | 0% | -7% | -4% | -3% | -10% | -6% | 3%
Salmonella PhoP GFP | 5% | 8% | -3% | 7% | 9% | 9% | -13% | -5%

[9] Cc1[nH]c(=O)c(C#N)c2c1CSC(C)(C)C2
[10] CCOc1cc(CNCc2cccs2)cc(Br)c1OC
[11] Cc1ccc(S(=O)(=O)c2c(C)cc(-c3ccccc3)[nH]c2=O)cc1
[12] CCOC(=O)c1cnn(-c2ccccc2)c1NC(=O)C(F)(F)C(F)(F)C(F)(F)F
[13] Cc1ccc(C)c(NC(=S)c2ccccn2)c1
[14] CCNC(=S)NNC(=O)c1ccoc1C
[15] COC(=O)c1cccc(-n2[nH]nnc2=S)c1
[16] COc1ccc(/C=C/c2ccncc2)cc1

Compound | 9 | 10 | 11 | 12 | 13 | 14 | 15 | 16
Myeloid diff MLP GFP+ MAC1+ % | 0.2 | 0.4 | 0.8 | 0.1 | 0.5 | 0.4 | 0.8 | 0.5
Myeloid diff MLP | i | i | i | i | i | i | i | i
HIV fusion peptide | -0.3% | -1.7% | 1.5% | 1.9% | -4.0% | -0.5% | 0.7% | -0.7%
KOR agonists | 4.3% | 0.5% | 0.7% | 3.3% | -1.1% | 3.8% | 8.0% | 10%
Siah-1 displacement | -2% | 3% | 3% | 0% | -1% | -2% | 0% | -3%
LYP phosphatase | -5% | -6% | 2% | -8% | -3% | -3% | -4% | 0%
Salmonella PhoP GFP | -2% | 18% | -5% | -3% | 4% | -2% | 12% | 3%

[17] Cc1cc(OC(=O)c2cc(F)c(F)cc2Cl)nc(C)n1
[18] C=CCn1c(SCc2ccc(C#N)cc2)nnc1-c1ccc(C)cc1
[19] C/C(O)=c1/ccc2cccc3nc(C)nc1c23
[20] COc1ccc2cc(CN(CCO)C(=O)c3ccc(Br)cc3)c(=O)[nH]c2c1
[21] COc1ccc(CN2CC(C(=O)NCCC3=CCCCC3)CC2=O)cc1 (stereo not given)
[22] CCN(CC(=O)NC1CCS(=O)(=O)C1)c1ccc(S(C)(=O)=O)cc1[N+](=O)[O-] (stereo not given)
[23] CCOC(=O)C1=C(COc2ccc(F)cc2Cl)NC(=O)NC1c1cc(C)ccc1C (stereo not given)
[24] Cc1c(NC(=O)/C(=C\c2ccccc2)NC(=O)c2ccccc2)c(=O)n(-c2ccccc2)n1C

Compound | 17 | 18 | 19 | 20 | 21 | 22 | 23 | 24
Myeloid diff MLP GFP+ MAC1+ % | 0.6 | 5.2 | 4.0* | . | 1.5 | 0.6 | 1.3 | 0.2
Myeloid diff MLP | i | i | + | . | i | i | i | i
HIV fusion peptide | -1.1% | -1.2% | 4.8% | -0.4% | -0.5% | -0.5% | 1.5% | -0.9%
KOR agonists | 7.3% | 3.5% | -5.5% | -1.1% | -0.4% | 0.3% | 10% | 2.5%
Siah-1 displacement | 7% | -2% | -10% | 3% | -2% | 1% | -2% | 3%
LYP phosphatase | -6% | -8% | -11% | -8% | -10% | 2% | 1% | 1%
Salmonella PhoP GFP | -3% | 2% | -11% | 11% | 20% | 6% | 3% | -7%

[25] O=[N+]([O-])c1cc(C(F)(F)F)ccc1NCCCCNS(=O)(=O)c1ccc2ccccc2c1
[26] O=C(N/N=C/c1ccco1)c1ccccn1
[27] COc1ccc(-c2c(C)nn(Cc3ccccc3)c2N)cc1
[28] COc1cc(C2N(c3cc(C)on3)C(=O)C3CCCN32)cc(OC)c1OC (stereo not given)
[29] CCN(CC)CCN1C(=O)Cn2c(C)c(C)c3cccc1c32
[30] CC(C)Oc1ccc(C2CC(=O)NC3=C2C(=O)CCC3)cc1 (stereo not given)
[31] CCOC(=O)C1=C(CSc2nc(-c3ccccc3)ccc2C#N)OC(N)=C(C#N)C1c1ccc(OC)cc1 (stereo not given)
[32] CC(=O)NC(O)C(=O)c1ccco1 (stereo not given)
[33] Cc1oc(/C=N/NC(=O)CN(c2ccccc2Br)S(C)(=O)=O)cc1Br
[34] Cn1nc(C(F)(F)F)c(C(=O)Nc2ccc(C(F)(F)F)cc2)c1Cl
[35] O=C(CSc1ncnc2c1cnn2CCc1ccccc1)Nc1ccc(F)cc1

Compound | 25 | 26 | 27 | 28 | 29 | 30 | 31 | 32 | 33 | 34 | 35
Myeloid diff MLP GFP+ MAC1+ % | 4.1 | 8.4 | 9.1 | 1.6 | 0.1&16 | 0.8 | 27* | 1.6 | 0.6 | 1.7 | .
Myeloid diff MLP | i | i | i | i | i | i | + | i | i | i | .
HIV fusion peptide | 3.0% | 6.0% | -2.0% | -1.3% | -0.3%&0.2% | 0.5% | 72% | 3.8% | -0.3% | 1.0% | 1.1%
KOR agonists | 4.5% | 3.5% | -0.5% | 0.0% | 0.4%&1.5% | -0.7% | 0.7% | -1.1% | 1.6% | 0.2% | 5.7%
Siah-1 displacement | -3% | -1% | 4% | 2% | -3%&-4% | -2% | 1% | -3% | 2% | 2% | -3%
LYP phosphatase | 2% | -1% | -3% | -8% | -9%&-1% | 4% | -2% | -15% | -1% | 4% | -6%
Salmonella PhoP GFP | 0% | 6% | 0% | -7% | 4%&-3% | 8% | -3% | 8% | -9% | -5% | 7%

3 structures out of the list, ordered by formula weight, ascending.
[29] CCN(CC)CCN1C(=O)Cn2c(C)c(C)c3cccc1c32
[34] Cn1nc(C(F)(F)F)c(C(=O)Nc2ccc(C(F)(F)F)cc2)c1Cl
[35] O=C(CSc1ncnc2c1cnn2CCc1ccccc1)Nc1ccc(F)cc1

Compound | 29 | 34 | 35
Myeloid diff MLP GFP+ MAC1+ % | 0.1&16 | 1.7 | .
Myeloid diff MLP | i | i | .
HIV fusion peptide | -0.3%&0.2% | 1.0% | 1.1%
KOR agonists | 0.4%&1.5% | 0.2% | 5.7%
Siah-1 displacement | -3%&-4% | 2% | -3%
LYP phosphatase | -9%&-1% | 4% | -6%
Salmonella PhoP GFP | 4%&-3% | -5% | 7%
